# FGF22 binding: binders of human FGF22 protein, primary screen, FGF22 synaptogenesis inhibitor project, biophysical, thermal shift, single point | Fibroblast growth factor 22 (Homo sapiens), Q9HCT0 | recombinant FGF22 thermal shift, SYPRO orange fluorescence; percent of sucrose octasulfate shift, DMSO zero | calls only at 9.99 µM | actives 1.5% (n = 340,000) | AID 651658, 2012;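 active = melting point raised past a set limit in the mean and every replicate; three in four hits are not shown here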
# Target sequence (Q9HCT0 whole entry, looked up): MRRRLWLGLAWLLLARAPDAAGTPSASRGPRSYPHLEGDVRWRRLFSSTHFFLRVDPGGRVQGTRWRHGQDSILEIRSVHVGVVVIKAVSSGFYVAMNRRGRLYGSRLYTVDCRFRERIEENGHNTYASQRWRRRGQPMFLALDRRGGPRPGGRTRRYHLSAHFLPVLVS
# MLL AF4-AF9 inh: inhibitors of AF4 peptide binding to AF9, primary screen, biochemical, AlphaScreen, biotin-AF4 peptide, FLAG-AF9, single point; inhibition, % at 10 µM; actives 0.47% (n = 350,000);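 active = every replicate reaching a set inhibition limit, whatever the replicate mean, cut at about 25% in these data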;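 also: 0% = plate neutral control median and 100% = total signal loss; the record names both 10 and 1 µM as test concentration; the first replicate is given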
# Target sequence (P42568 whole entry, looked up): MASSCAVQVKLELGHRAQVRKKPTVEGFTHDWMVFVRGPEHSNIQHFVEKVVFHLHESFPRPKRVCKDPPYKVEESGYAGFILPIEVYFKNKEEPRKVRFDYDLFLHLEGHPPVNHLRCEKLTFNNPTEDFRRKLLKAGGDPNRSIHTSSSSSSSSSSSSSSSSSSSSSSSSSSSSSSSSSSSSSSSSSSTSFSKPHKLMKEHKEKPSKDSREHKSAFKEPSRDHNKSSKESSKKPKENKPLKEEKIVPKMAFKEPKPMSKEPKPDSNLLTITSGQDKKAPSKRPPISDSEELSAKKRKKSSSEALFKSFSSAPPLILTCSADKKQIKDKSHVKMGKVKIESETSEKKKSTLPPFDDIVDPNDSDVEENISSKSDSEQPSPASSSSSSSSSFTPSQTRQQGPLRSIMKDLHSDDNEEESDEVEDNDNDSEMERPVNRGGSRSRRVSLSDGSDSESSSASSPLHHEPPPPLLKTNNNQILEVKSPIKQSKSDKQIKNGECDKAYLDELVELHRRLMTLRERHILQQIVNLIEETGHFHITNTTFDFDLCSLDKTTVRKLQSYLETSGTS
# Ecoli rRNA inh: reduced GFP signal of wild-type E. coli, primary screen, bacterial rRNA inhibitor project, GFP/RFP fluorescence, OD600, single point. E. coli WT GFP vs humanized-ribosome RFP mutants, 24 h; stronger effect = lower value; DMSO median 0, no signal -100. GFP signal change (wild-type ribosome), % (no concentration beside the values). actives 1.6% (n = 350,000). AID 720706, 2013;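 active = significant combined selectivity score with lowered wild-type GFP, culture density cut under 30%, mutant RFP and density less affected; inactive = any of these conditions unmet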; also: one replicate is shown; some compounds called inactive have numbers as strong as hits
# Ecoli rRNA inh OD600: also measured in Ecoli rRNA inh; calls as there; OD600 change, %; measured here: OD600 growth;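 optical density of the mix in the first replicate; 0 = DMSO median and -100 = no signal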
# Ecoli rRNA inh RFP: recorded beside Ecoli rRNA inh, whose call it bears; RFP signal change, %; measured here: RFP humanized mutant strains;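 first replicate; 0 = DMSO median and -100 = no signal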
# Active calls of the source: *; i = inactive; nt = no result given; + = active, no number; & = joins results of further samples. Not all compounds are listed. The share of hits here may be higher or lower than overall.
SMILES,FGF22 binding,MLL AF4-AF9 inh,Ecoli rRNA inh,Ecoli rRNA inh OD600,Ecoli rRNA inh RFP
O=C(c1ccccc1)C1(c2ccccc2)OC1c1ccccc1 (configuration not stated),i,-0.2,-13.9,-27.3,2.3
O=C(NC[C@@H]1[C@@H](c2ccccc2)[C@H](CO)N1Cc1cccnc1)c1ccccn1,i,-0.8,0.3,0.9,-0.4
CC(=O)N(C)C[C@H]1Oc2cc(C#CC(C)C)ccc2S(=O)(=O)N([C@H](C)CO)C[C@H]1C,i,-3.1,-2.1,-5.3,0.7
Cc1noc(C)c1S(=O)(=O)Nc1ccc2c(c1)CC(=O)N([C@@H](C)CO)C[C@@H](C)[C@H](CN(C)C(=O)Nc1ccc(C(F)(F)F)cc1)O2,i,-1.8,0.8,-5.1,1.0
OC[C@H]1[C@H](c2ccc(C#Cc3ccccc3F)cc2)[C@@H]2CN(CC3CCOCC3)CCCCN12,i,19.5,-29.7,-57.7,5.2
CNC(=O)C[C@@H]1CC[C@H]2[C@H](COc3ccc(NC(=O)Nc4ccc(F)cc4)cc3C(=O)N2C)O1,i,1.5,-0.1,-9.1,2.6
C[C@H]1CN([C@@H](C)CO)C(=O)c2cc(C#CCc3ccccc3)cnc2O[C@H]1CN(C)Cc1ccccn1,i,3.0,1.1,-2.7,-3.1
C[C@H](NC(=O)[C@@H]1[C@@H](CO)[C@@H]2Cn3c(cccc3=O)[C@@H]2N1S(C)(=O)=O)c1ccccc1,i,-1.8,1.8,12.7,-0.3
CCOC(=O)N1CCC2CC1c1cc(-c3cccc(OC)c3)ccc12 (configuration not stated),i,-8.8,-0.8,-7.1,-4.5
COc1ccc2c3c([nH]c2c1)[C@@H](CO)N(C(=O)Nc1ccc(F)cc1)CC31CN(Cc2ccccc2OC)C1,i,50.5*,-59.0,-77.8,-14.1
CN(c1ccccc1)S(=O)(=O)c1cccc(C(=O)NCC(c2cccs2)N2CCOCC2)c1 (configuration not stated),i,-0.2,0.3,-2.3,-0.6
CCNC(=O)C[C@H]1CC[C@@H]2[C@H](COc3ccc(NC(=O)NC(C)C)cc3C(=O)N2C)O1,i,-0.7,3.6,6.7,0.2
CCCNC(=O)N1C[C@H](O)COC[C@H]2O[C@@H](CC(=O)N[C@@H]3CCN(Cc4ccccc4)C3)CC[C@@H]21,i,-6.2&-0.5,4.8&12.0,0.8&7.4,-5.4&2.5
COc1ccccc1CN1C[C@H](C)[C@@H](OC)CN(C)C(=O)c2cc(NC(C)=O)ccc2OC[C@H]1C,i,2.8,1.1,0.0,-1.1
C[C@@H]1CN([C@H](C)CO)S(=O)(=O)c2ccc(-c3cncnc3)cc2O[C@H]1CN(C)C(=O)c1cccc(F)c1,i,1.4,3.3,9.2,-3.0
CCCNC(=O)C[C@@H]1CC[C@H]2[C@H](COc3ccc(NC(=O)C4CCOCC4)cc3C(=O)N2C)O1,i,-0.3,4.7,0.9,-0.2
O=S1(=O)N[C@H](Cc2ccccc2)COc2cccc(N3CCCCC3)c21,i,0.3,-27.3,-41.7,-0.2
CC(C)NC(=O)Nc1ccc2c(c1)CC(=O)N([C@H](C)CO)C[C@H](C)[C@H](CN(C)CC1CCCCC1)O2,i,2.0,2.2,5.1,0.1
COC(=O)CCC[C@H](C)[C@@H](NS(=O)(=O)c1ccc(C)cc1)C(C)(C)C,nt,-1.4,-9.9,-23.2,-2.1
C[C@H](NC(=O)[C@H]1N[C@H]2c3ccc(-c4cccnc4)c(=O)n3C[C@H]2[C@@H]1CO)c1ccccc1,i,1.8,-2.7,-1.6,-1.0
C[C@H](CO)N1C[C@H](C)[C@@H](CN(C)C(=O)Nc2ccnc(N3CCOCC3)c2)OCc2cn(nn2)CCCC1=O,i,0.5&-6.1,-2.4&8.0,-0.6&18.0,-2.4&-0.5
C[C@@H]1CN([C@@H](C)CO)C(=O)c2cc(NC(=O)Nc3ccc(F)cc3)ccc2O[C@H]1CN(C)Cc1ccc(-c2ccccc2)cc1,i,3.9,-2.4,-6.2,0.3
COc1ccc(NC(=O)N(C)C[C@@H]2OCCCC[C@H](C)Oc3ccc(NS(=O)(=O)c4ccccc4)cc3C(=O)N([C@H](C)CO)C[C@@H]2C)cc1,i,2.8,-2.3,-4.8,-0.3
CCCCc1c(-c2ccccc2OC)ncn1Cc1ccccc1,i,13.5,-54.7,-81.2,-15.6
O=C(NCC[C@@H]1CC[C@H](NC(=O)c2cccnc2)[C@@H](CO)O1)Nc1ccc(F)cc1,i,10.1,0.8,6.1,-1.1
CCS(=O)(=O)N[C@@H]1CC[C@@H](CC(=O)NCc2ccccn2)O[C@@H]1CO,i,-4.9,0.1,2.6,0.5
CNC[C@@H]1Oc2ncc(Br)cc2C(=O)N([C@@H](C)CO)C[C@@H]1C,i,-1.5,1.3,1.9,1.3
COC(=O)[C@]12C[C@H](CC(=O)N3CCCCC3)C(=O)N(Cc3ccc4c(c3)OCO4)C1=C[C@H](C(C)(C)C)O[C@@H]2C,i,6.8,-2.3,-14.3,7.1
CC(C)NC(=O)N(C)C[C@@H]1Oc2cc(C#Cc3ccc(F)cc3)ccc2S(=O)(=O)N([C@@H](C)CO)C[C@H]1C,i,1.1,-8.1,-32.4,3.8
C[C@H](NC(=O)C[C@@H]1CC[C@@H]2[C@H](COC[C@@H](O)CN2C(=O)Nc2cc(Cl)cc(Cl)c2)O1)c1ccccc1,i,-2.4,-43.0,-54.6,8.0
C[C@@H]1CN([C@@H](C)CO)C(=O)c2cc(NC(=O)Nc3ccccc3)ccc2O[C@@H](C)CCCCO[C@H]1CN(C)C(=O)CCCN(C)C,i,4.9,-3.2,-2.0,0.0
COC(=O)[C@@]12C[C@@H](CC(=O)NCc3ccc(OC)c(OC)c3)C(=O)N(CCc3ccc(OC)c(OC)c3)C1=CCC(C)(C)C2,i,7.5,-10.4,-6.3,-1.6
C[C@@H]1CN([C@@H](C)CO)C(=O)c2cccc(NS(=O)(=O)c3cn(C)cn3)c2O[C@H]1CN(C)Cc1ccc(Cl)c(Cl)c1,i,2.2,-2.7,-4.7,0.2
CO[C@H]1CC[C@@H]2CCN(C)C(=O)[C@H](C)CN(C)C(=O)c3cc(C#N)ccc3OC[C@H]1O2,i,1.9,2.2,15.8,-2.5
CCCCC(=O)N(C)c1c(C)nc2ccc(C(=O)N3CCN(C(C)=O)CC3)cn12,i,-0.4,11.7,9.7,0.3
CN(C)C(=O)C[C@H]1CC[C@@H](NC(=O)c2ccc(F)cc2)[C@@H](CO)O1,i,-1.5,0.8,4.0,-2.3
COc1ccc(-c2cn(CC[C@@H]3CC[C@H](NC(=O)Cc4ccccn4)[C@H](CO)O3)nn2)cc1,i,2.0,-0.4,6.2,-0.2
FC(F)(F)c1cccc(-c2cc3nc(NCCCn4ccnc4)ccn3n2)c1,i,-1.9,-27.0,-44.7,-6.6
Cc1cccc(C(=O)Nc2ccn(C)n2)c1,i,0.2,3.0,7.3,1.7
CO[C@@H]1CN(C)C(=O)c2ccc(NS(=O)(=O)c3cn(C)cn3)cc2OC[C@@H](C)N(CC2CC2)C[C@@H]1C,i,-2.3,3.6,0.4,-1.8
C[C@@H]1CCCCO[C@@H](CN(C)C(=O)c2ccncc2)[C@@H](C)CN([C@@H](C)CO)C(=O)c2cc(NS(=O)(=O)c3cccs3)ccc2O1,i,-1.8,0.8,9.2,0.4
CC[C@]12c3[nH]c4cc(-c5ccco5)ccc4c3CCN1C(=O)[C@@H](CC(=O)NC(C)(C)C)C[C@@H]2C(=O)N1CCN(C(=O)C2CC2)CC1,i,4.7,2.2,8.1,8.5
CCCC(=O)Nc1ccc2c(c1)C(=O)N(C)[C@H]1CC[C@H](CC(=O)Nc3ccccc3)O[C@@H]1CO2,i,-0.8,-3.5,-1.5,-1.8
Cc1ccc(Cc2c(-c3cccc(Cl)c3)nc3c(C)cc(Br)cn23)cc1,i,1.3,-5.3,-11.8,5.7
CCNC(=O)C1CCCN(C(=O)c2cc(OC)c(OC)c(OC)c2)CC1 (configuration not stated),i,-1.7,9.6,14.9,-0.3
CO[C@H]1CC[C@@H]2CCOc3ccc(C#N)cc3C(=O)N(C)C[C@@H](OC)[C@H](C)C(=O)N(C)C[C@H]1O2,i,1.5,0.5,-0.2,-2.4
CC[C@H](C)[C@H]1CNC(=S)N1CC1CCN(CCC(C)C)CC1,i,1.1,9.3,18.6,-1.4
CCCNC(=O)C[C@@H]1C[C@@H]2c3cc(N(C)C)ccc3O[C@@H]2[C@H](CO)O1,i,-1.3,2.7,10.3,2.7
Cc1ccc(S(=O)(=O)N2CCN(CC(=O)Nc3ccccc3Cl)CC2)cc1,i,-1.5,9.7,13.2,-2.0
O=C(COC(=O)c1c2c(nc3ccccc13)/C(=C\c1ccco1)CC2)NC1CCCC1,i,3.0,3.1,20.1,6.6
C[C@@H]1CN([C@H](C)CO)C(=O)Cc2cc(NC(=O)NC3CCCCC3)ccc2O[C@H]1CN(C)C(=O)Nc1ccccc1,i,-3.1,1.5,5.9,-0.9
NC1=NN(c2c(Cl)cc(Cl)cc2Cl)C(=O)C1,i,-1.8,-4.4,6.3,-3.8
CCC(C)c1c(NS(=O)(=O)c2ccc(C)cc2)o[nH]c1=O (configuration not stated),i,-5.5,13.6,3.9,3.3
CO[C@@H]1CN(C)C(=O)c2ccc(NS(=O)(=O)CC(F)(F)F)cc2OC[C@@H](C)N(CC2CCCCC2)C[C@H]1C,i,0.8,-1.9,-1.8,1.1
O=C(NCc1ccccc1F)Nc1nnc([C@@H]2C[C@H](O)[C@@H](CO)O2)s1,i,-3.8,7.6,0.3,0.7
COc1cccc(Cn2cnc(-c3ccccc3OC)c2-c2cccnc2)c1,i,0.9,6.7,8.6,8.3
CCCNC(=O)C1(C)CCN(C(=O)c2cc(C)nn2C(C)(C)C)C1 (configuration not stated),i,-4.3,8.2,20.0,-1.3
C[C@@H]1CN([C@@H](C)CO)C(=O)c2cc(NS(=O)(=O)c3cccs3)ccc2O[C@H]1CN(C)C(=O)Nc1ccc(F)cc1,i,-3.0,-2.0,2.2,-2.2
C[C@H](CO)N1C[C@H](C)[C@H](CN(C)C(=O)C2CCCCC2)Oc2ncc(Br)cc2C1=O,i,-2.5,4.4,2.9,-6.3
C[C@H](CO)N1C[C@H](C)[C@@H](CN(C)S(=O)(=O)c2ccccc2)Oc2ccc(N(C)C)cc2CC1=O,i,4.1,0.6,-1.7,2.6

# Some values from the list.
# NC1=NN(c2c(Cl)cc(Cl)cc2Cl)C(=O)C1 in Ecoli rRNA inh reads -4.4
# CC[C@]12c3[nH]c4cc(-c5ccco5)ccc4c3CCN1C(=O)[C@@H](CC(=O)NC(C)(C)C)C[C@@H]2C(=O)N1CCN(C(=O)C2CC2)CC1 in Ecoli rRNA inh reads 2.2
# CC[C@H](C)[C@H]1CNC(=S)N1CC1CCN(CCC(C)C)CC1 in Ecoli rRNA inh OD600 reads 18.6
# Cc1ccc(S(=O)(=O)N2CCN(CC(=O)Nc3ccccc3Cl)CC2)cc1 in MLL AF4-AF9 inh reads -1.5
# C[C@@H]1CCCCO[C@@H](CN(C)C(=O)c2ccncc2)[C@@H](C)CN([C@@H](C)CO)C(=O)c2cc(NS(=O)(=O)c3cccs3)ccc2O1 in MLL AF4-AF9 inh reads -1.8

# (further entries)
SMILES,FGF22 binding,MLL AF4-AF9 inh,Ecoli rRNA inh,Ecoli rRNA inh OD600,Ecoli rRNA inh RFP
O=C(Cc1ccccc1)N[C@@H]1CC[C@@H](CC(=O)N2CCOCC2)O[C@@H]1CO,i,-0.6,2.2,3.2,-1.5
CC(C)NC(=O)N1[C@H](CO)[C@H](c2ccccc2-c2ccc(F)cc2)[C@@H]1C#N,+,-10.2,-3.6,-14.0,-2.9
COc1ccc(-c2cc(-c3ccccc3)nc(N)n2)c(O)c1,i,4.2,3.3,22.7,2.8
CCC(=O)Nc1ccc2c(c1)OC[C@H](C)N(C(=O)COC)C[C@H](C)[C@H](OC)CN(C)C2=O,i,6.1,-1.0,-1.2,0.4
O=C([C@@H]1[C@@H](CO)[C@@H]2Cn3c(ccc(-c4ccccc4F)c3=O)[C@H]1N2C(=O)C1CCC1)N1CCCCC1,i,-3.3,-3.2,6.4,-2.1
O=C(CC1CC1)N1CC2(C1)[C@@H](c1ccccc1)[C@H](CO)N2C(=O)c1ccccn1,i,-1.7,-4.8,7.2,-0.4
CCC(=O)N1C[C@@H](C)[C@H](OC)CN(C)C(=O)c2ccc(NC(=O)Nc3ccccc3)cc2OC[C@@H]1C,i,1.8,-3.6,-0.7,-0.7
COc1cccc(NC(=O)N(C)C[C@H]2Oc3cc(-c4ccccc4OC)ccc3S(=O)(=O)N([C@H](C)CO)C[C@H]2C)c1,i,5.6,-5.8,-21.3,0.3
CC1(C(=O)NS(=O)(=O)c2ccccc2)CCN1C(=O)C/C=C/c1ccccc1 (configuration not stated),i,-1.3,-5.9,-3.1,-0.6

# Limited to Ecoli rRNA inh OD600, for some of the entries so far:
SMILES	Ecoli rRNA inh OD600
COc1cccc(NC(=O)N(C)C[C@H]2Oc3cc(-c4ccccc4OC)ccc3S(=O)(=O)N([C@H](C)CO)C[C@H]2C)c1	-21.3
CC1(C(=O)NS(=O)(=O)c2ccccc2)CCN1C(=O)C/C=C/c1ccccc1 (configuration not stated)	-3.1

# Screening results: PubChem BioAssay, Broad Institute
